# DUX4 inh: blocks DUX4-driven transcriptional activation. 293T-iDUX4 ZSCAN4-Gaussia luciferase reporter, 24 h; hits give low values. activity change, negative = inhibition, % (concentration not given with the values). 37,000 tested, 0.8% active. AID 1224904;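 active = -10% or lower and over 25 points stronger than a control reporter; inconclusive = -10% or lower with a smaller gap; inactive = above -10%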;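 also: 0% = median of neutral control wells and -100% = median of positive control wells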
# DUX4 inh difference: further read-out of DUX4 inh, marked with its call; Gaussia minus Italica difference, %; measured here: selective DUX4 reporter inhibition;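 worked out from the two reporters; negative = selective loss of the DUX4 reporter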
# DUX4 inh control: further read-out of DUX4 inh, marked with its call; activity change, negative = inhibition, %; measured here: Italica tet-on control reporter;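 0 = neutral control and -100 = positive control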
# Starred values were filed as active, the others as inactive; ? = inconclusive; . = not tested or not shown; & = joins results of further samples. A portion of the library; the hit share may differ from the screen's.
No.	SMILES	DUX4 inh	DUX4 inh difference	DUX4 inh control
1	O=C(C[C@@H]1CC[C@@H](NC(=O)C2CCC2)[C@@H](CO)O1)NCc1ccncc1	-7.1	-8.3	1.2
2	C[C@H](NC(=O)C[C@H]1CC[C@H]2[C@H](COc3ccc(NS(=O)(=O)c4ccc(Cl)cc4)cc3C(=O)N2C)O1)c1ccccc1	2.6	1.4	1.2
3	COc1cccc(S(=O)(=O)N(C)C[C@H]2OCc3cn(nn3)CCCC(=O)N([C@@H](C)CO)C[C@H]2C)c1	8.7	6.7	2.0
4	CC(=O)N(C)C[C@H]1[C@@H](c2ccc(C#CC(C)C)cc2)[C@@H](CO)N1C(=O)C1CCC1	1.8	2.0	-0.2
5	O=C(NC[C@@H]1[C@H](c2ccccc2)[C@@H](CO)N1C(=O)C1CCC1)NC1CCCC1	-4.1	-1.2	-2.9
6	COC(=O)[C@H]1[C@H](CO)[C@H]2Cn3c(ccc(/C=C/c4ccccc4)c3=O)[C@H]2N1C(=O)CC1CC1	10.7	9.7	1.1
7	O=C(CC1CC1)N1CC2(C1)[C@@H](c1ccccc1)[C@H](CO)N2C(=O)c1cnccn1	1.3	3.7	-2.4
8	O=C([C@H]1[C@H](CO)[C@H]2Cn3c(ccc(C4=CCCCC4)c3=O)[C@@H]1N2)N1CCCCC1	6.5	1.3	5.2
9	COc1ccc(C#Cc2ccc3c(c2)[C@@H]2[C@@H](CCN2S(=O)(=O)c2cccc(OC)c2)[C@H](CO)N3)cc1	4.4	-8.7	13.1
10	COc1cccc(-c2ccc([C@H]3[C@@H](C#N)N(C(=O)Cc4ccccc4)[C@@H]3CO)cc2)c1	-8.2	-1.5	-6.7
11	CNC[C@@H]1OCCCC[C@H](C)Oc2ccc(NS(=O)(=O)c3c(C)noc3C)cc2C(=O)N([C@H](C)CO)C[C@@H]1C	-6.1	-5.0	-1.1
12	Cc1ccc(S(=O)(=O)NCC[C@@H]2CC[C@@H](NS(=O)(=O)c3ccccc3Cl)[C@@H](CO)O2)cc1	-5.6	-8.1	2.4
13	CC(=O)N(C[C@H]1N[C@H](CO)[C@H]1c1ccc(-c2ccc(F)cc2)cc1)C(C)C	2.2	1.5	0.8
14	COc1ccc2c3c([nH]c2c1)[C@@H](CO)N(C(=O)c1cccnc1)CC31CN(Cc2ccccc2)C1	3.6	-9.6	13.1
15	COc1ccc(C(=O)Nc2ccc3c(c2)OC[C@@H](C)NC[C@H](C)[C@@H](OC)CN(C)C3=O)cc1	-0.8	-3.7	2.9
16	C[C@H](CO)N1C[C@H](C)[C@H](CN(C)S(C)(=O)=O)OCCCC[C@H](C)Oc2ccc(N(C)C)cc2C1=O	-1.7	0.3	-2.1
17	CN1C[C@H](O)COC[C@H]2O[C@H](CC(=O)N3CCN(c4ccccc4)CC3)CC[C@@H]21	5.2	2.3	2.9
18	CNC[C@H]1Oc2ncc(C#CC3(O)CCCC3)cc2C(=O)N([C@H](C)CO)C[C@@H]1C	-1.3	-1.6	0.3
19	COC(=O)[C@@H]1[C@@H](CO)[C@@H]2Cn3c(ccc(-c4cccc(F)c4)c3=O)[C@@H]2N1CC1CC1	-5.3	-1.8	-3.6
20	Cc1ccccc1-c1ccc(C2[C@H]3CNC[C@@H]2N3C(=O)Nc2ccc(Cl)cc2)cc1 (stereo partly specified)	5.4&10.2	6.8&0.7	-1.4&9.5
21	CO[C@H]1CN(C)C(=O)c2ccc(NC(=O)Nc3ccccc3F)cc2OC[C@@H](C)N(CC2CC2)C[C@H]1C	5.8	8.5	-2.7
22	O=C(C[C@H]1CC[C@H]2[C@@H](COC[C@@H](O)CN2CCc2ccccc2)O1)NCc1ccc(F)cc1	?	.	.
23	O=C(O)C[C@H]1CC[C@H](NC(=O)c2ccncc2)[C@H](CO)O1	4.9	1.2	3.7
24	Cc1ccc(S(=O)(=O)Nc2ccc3c(c2)C(=O)N([C@H](C)CO)C[C@@H](C)[C@@H](CN(C)S(C)(=O)=O)O3)cc1	-2.9	1.9	-4.8
25	O=C(CC1CC1)N1CC2(C1)[C@@H](c1ccccc1)[C@@H](CO)N2C(=O)c1ccccn1	19.5	14.7	4.7

# Single values from the list.
# Cc1ccc(S(=O)(=O)NCC[C@@H]2CC[C@@H](NS(=O)(=O)c3ccccc3Cl)[C@@H](CO)O2)cc1 in DUX4 inh difference is entered as -8.1
# COc1ccc(C#Cc2ccc3c(c2)[C@@H]2[C@@H](CCN2S(=O)(=O)c2cccc(OC)c2)[C@H](CO)N3)cc1 in DUX4 inh is entered as 4.4

# (cont.)
No.	SMILES	DUX4 inh	DUX4 inh difference	DUX4 inh control
26	O=C(NCC[C@H]1CC[C@H](NC(=O)C2CCOCC2)[C@H](CO)O1)c1cc(Cl)cc(Cl)c1	-2.9	1.7	-4.6
27	COc1ccc(NC(=O)Nc2ccc3c(c2)[C@@H]2C[C@H](CC(=O)NC4CCCCC4)O[C@H](CO)[C@@H]2O3)cc1	7.5	2.6	5.0
28	C[C@@H]1CN([C@H](C)CO)C(=O)c2ccccc2-c2ccccc2CO[C@H]1CN(C)C(=O)[C@H]1CCCN1C	0.9	-10.4	11.3
29	COc1ccc(CN2C[C@H](O)COC[C@@H]3O[C@@H](CC(=O)N(C)C)CC[C@H]32)cc1	3.7	2.6	1.1
30	CCS(=O)(=O)N(C)C[C@@H]1N[C@H](CO)[C@@H]1c1ccc(C2=CCCCC2)cc1	0.2	1.3	-1.1
31	Cc1noc(C)c1NC(=O)N(C)C[C@H]1OCCCC[C@@H](C)Oc2ccc(NC(=O)Nc3cccc4ccccc34)cc2C(=O)N([C@H](C)CO)C[C@@H]1C	-1.3	-0.2	-1.1
32	CC(=O)NC[C@@H]1[C@H](c2ccc(-c3cccc(F)c3)cc2)[C@@H](CO)N1C(C)=O	-2.8	-2.9	0.1
33	CCCNC(=O)N1[C@H](CO)[C@H](c2ccccc2-c2ccccc2F)[C@@H]1C#N	?	.	.
34	C/C=C/c1ccc([C@H]2[C@@H](CO)N(C(C)=O)[C@@H]2CN(CCC)C(C)=O)cc1	0.6	0.1	0.4
35	N#C[C@H]1[C@H](c2ccc(C#Cc3ccc(F)cc3)cc2)[C@H](CO)N1c1nc(-c2ccccc2)cs1	6.5	2.9	3.6
36	CCC(=O)N1CCCCN2[C@H](C1)[C@@H](c1ccc(C#Cc3ccccc3)cc1)[C@@H]2CO	-9.0	3.2	-12.2
37	CCCNC(=O)C[C@@H]1CC[C@H]2[C@@H](COC[C@@H](O)CN2C(=O)c2cc(Cl)cc(Cl)c2)O1	1.8	-16.7	18.5
38	C[C@H](O)C#Cc1ccc2c(c1)O[C@H](CN(C)C(=O)Cc1ccccn1)[C@H](C)CN([C@H](C)CO)S2(=O)=O	-4.4	-6.8	2.4
39	CN(C)CCCNC(=O)[C@@H]1[C@@H](CO)[C@@H]2Cn3c(cccc3=O)[C@H]1N2C(=O)Nc1cc(F)ccc1F	1.7	1.1	0.6
40	N#C[C@@H]1[C@H](c2ccccc2C2=CCCC2)[C@@H](CO)N1C(=O)CN1CCOCC1	7.9	0.7	7.2
41	COCC(=O)N1[C@@H](C#N)[C@H](c2ccc(-c3cccc(F)c3)cc2)[C@@H]1CO	-3.7	-6.7	3.0
42	COc1ccc(C#Cc2ccc([C@H]3[C@H](CO)N4C(=O)CN(C(=O)Nc5ccccc5F)C[C@@H]34)cc2)cc1	2.0	0.5	1.6
43	COc1ccc2c3c(n(C)c2c1)[C@H](CO)NCC31CN(S(=O)(=O)c2ccc(C)cc2)C1	3.9	7.1	-3.2
44	CO[C@H]1CN(C)C(=O)c2cc(NC(=O)C3CC3)ccc2OC[C@@H](C)N(C(=O)c2ccccn2)C[C@@H]1C	-1.2	0.2	-1.4
45	Cc1cccc(S(=O)(=O)N(C)C[C@@H]2OCc3ccccc3-c3ccccc3C(=O)N([C@@H](C)CO)C[C@H]2C)c1	?	.	.
46	O=C(CC1CC1)N1CC(=O)N2[C@H](C1)[C@@H](c1ccc(/C=C/c3ccccc3)cc1)[C@@H]2CO	?	.	.
47	C[C@@H]1CCCCO[C@@H](CN(C)C(=O)c2ccccc2)[C@H](C)CN([C@H](C)CO)C(=O)c2cc(NC(=O)C3CCCCC3)ccc2O1	-2.1	0.1	-2.3
48	COc1ccc(NC(=O)Nc2ccc3c(c2)[C@H]2C[C@H](CC(=O)NCc4ccc5c(c4)OCO5)O[C@@H](CO)[C@H]2O3)cc1	0.0	-7.0	7.0
49	COc1ccc2c3c(n(C)c2c1)[C@H](CO)N(CC1CCCC1)CC31CN(C(=O)Nc2ccccc2)C1	?	.	.
50	COC(=O)C[C@@H]1C[C@H]2c3cc(N)ccc3O[C@H]2[C@H](CO)O1	4.2	1.1	3.1

# Of the compounds above, 5 contain a cyano group.
No.	SMILES	DUX4 inh	DUX4 inh difference	DUX4 inh control
10	COc1cccc(-c2ccc([C@H]3[C@@H](C#N)N(C(=O)Cc4ccccc4)[C@@H]3CO)cc2)c1	-8.2	-1.5	-6.7
33	CCCNC(=O)N1[C@H](CO)[C@H](c2ccccc2-c2ccccc2F)[C@@H]1C#N	?	.	.
35	N#C[C@H]1[C@H](c2ccc(C#Cc3ccc(F)cc3)cc2)[C@H](CO)N1c1nc(-c2ccccc2)cs1	6.5	2.9	3.6
40	N#C[C@@H]1[C@H](c2ccccc2C2=CCCC2)[C@@H](CO)N1C(=O)CN1CCOCC1	7.9	0.7	7.2
41	COCC(=O)N1[C@@H](C#N)[C@H](c2ccc(-c3cccc(F)c3)cc2)[C@@H]1CO	-3.7	-6.7	3.0

# More entries
No.	SMILES	DUX4 inh	DUX4 inh difference	DUX4 inh control
51	C/C=C/c1ccccc1[C@@H]1[C@@H](CO)N(C(=O)Cc2ccccn2)[C@H]1C#N	18.5	-1.3	19.8
52	N#C[C@H]1[C@H](c2ccccc2)[C@H](CO)N1C(=O)c1cccnc1	-0.5	-1.1	0.6
53	CC(=O)N1[C@H](C(=O)Nc2nccs2)[C@@H](CO)[C@@H]2Cn3c(ccc(/C=C/c4ccccc4)c3=O)[C@@H]21	4.7	-3.9	8.6
54	Cc1cccc(-c2ccc(C3[C@H]4CNC[C@@H]3N4C(=O)Nc3ccc(F)cc3)cc2)c1 (stereo partly specified)	11.3&17.2	7.9&-5.5	3.4&22.6
55	C[C@H](CO)N1C[C@H](C)[C@H](CN(C)Cc2ccc(C(F)(F)F)cc2)OCCCC[C@H](C)Oc2ccc(NC(=O)c3ccccc3)cc2C1=O	-0.8	1.8	-2.6
56	O=C(C[C@H]1CC[C@H]2[C@@H](COC[C@@H](O)CN2Cc2ccc(Cl)cc2)O1)NCc1cccc(F)c1	1.2	1.5	-0.3
57	Cc1noc(C)c1NC(=O)N(C)C[C@H]1OCCCC[C@@H](C)Oc2ccc(NS(=O)(=O)c3cn(C)cn3)cc2C(=O)N([C@H](C)CO)C[C@@H]1C	1.1	-3.3	4.4
58	CCCN1[C@H](C(=O)OC)[C@@H](CO)[C@@H]2Cn3c(ccc(-c4ccc(OC)cc4)c3=O)[C@@H]21	15.2	7.8	7.4
59	CS(=O)(=O)Nc1ccc2c(c1)[C@@H]1C[C@@H](CC(=O)NC3CCCC3)O[C@@H](CO)[C@@H]1O2	1.1	-2.4	3.6
60	C/C=C/c1ccc([C@H]2[C@@H](CO)N3CCCCN(C(=O)Nc4cc(F)ccc4F)C[C@@H]23)cc1	6.5	2.9	3.6
61	COCC(=O)Nc1ccc2c(c1)C(=O)N(C)C[C@@H](OC)[C@@H](C)CN(Cc1cncnc1)[C@H](C)CO2	0.1	-0.9	1.0
62	CN1C(=O)c2cc(NC(=O)c3cscn3)ccc2OC[C@H]2O[C@H](CC(=O)NCc3ccc(Cl)c(Cl)c3)CC[C@H]21	?	.	.
63	O=C(C1CC1)N1CCCCN2[C@@H](CO)[C@@H](c3ccc(C#CC4CCCC4)cc3)[C@@H]2C1	-5.2	-6.1	1.0
64	O=C(Cc1cccnc1)N1CC(=O)N2[C@@H](CO)[C@H](c3ccc(C#CC4CCCCC4)cc3)[C@@H]2C1	?	.	.
65	C[C@@H](NC(=O)C[C@@H]1CC[C@@H]2[C@H](COc3ccc(NS(=O)(=O)c4ccc(Cl)cc4)cc3C(=O)N2C)O1)c1ccccc1	-0.2	3.9	-4.1
66	CNC(=O)C[C@@H]1CC[C@H]2[C@H](COc3ccc(NC(=O)Nc4ccc(F)c(F)c4)cc3C(=O)N2C)O1	2.0	1.3	0.7
67	CO[C@H]1CN(C)C(=O)c2cc(NC(=O)c3ccccc3F)ccc2OC[C@H](C)NC[C@@H]1C	1.4	-2.1	3.5
68	CCC(=O)N1CC[C@@H]2[C@@H](CO)N(C)c3ccc(-c4cccc(F)c4)cc3[C@@H]21	9.9	3.4	6.5
69	O=C(C[C@@H]1C[C@H]2c3cc(NC(=O)Nc4ccc(C(F)(F)F)cc4)ccc3O[C@H]2[C@@H](CO)O1)NCc1ccc(Cl)cc1	-3.7	4.6	-8.3
70	C[C@H]1CN([C@@H](C)CO)C(=O)c2c(c3ccccc3n2C)-c2ccccc2CO[C@H]1CN(C)C(=O)Nc1ccccc1C(F)(F)F	?	.	.
71	CN(C)C(=O)C[C@@H]1C[C@H]2c3cc(NC(=O)NC4CCCC4)ccc3O[C@H]2[C@H](CO)O1	8.8	6.6	2.2
72	CO[C@@H]1CN(C)C(=O)c2cc(NC(=O)c3ccccc3F)ccc2OC[C@H](C)N(CC2CCOCC2)C[C@H]1C	0.9	3.3	-2.5
73	CN(C)CC(=O)N1CC(=O)N2[C@H](C1)[C@@H](c1ccc(C#Cc3cccnc3)cc1)[C@@H]2CO	6.2	-3.5	9.7
74	Cc1ccccc1S(=O)(=O)N1C[C@@H]2[C@H](c3ccccc31)[C@@H](CO)N2C(=O)CC1CC1	-6.1	-8.0	1.9
75	COc1ccc(-c2ccc([C@H]3[C@H]4CN(C(=O)Cc5ccccn5)CC(=O)N4[C@H]3CO)cc2)cc1	10.9	3.5	7.4

# Compound activity deposited in PubChem by Broad Institute.
